MLL AF4-AF9 inh – inhibitors of AF4 peptide binding to AF9, primary screen, biochemical, AlphaScreen, biotin-AF4 peptide, FLAG-AF9, single point | inhibition, % at 10 µM | AID 651704, 2012 | 0.47% of 350,000 active | Protein AF-9 (Homo sapiens), P42568;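 active = every replicate reaching a set inhibition limit, whatever the replicate mean, cut at about 25% in these data; inconclusive = mean inhibition reaches that limit but some replicates miss it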;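 also: 0% = plate neutral control median and 100% = total signal loss; the record names both 10 and 1 µM as test concentration; the first replicate is given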
Target sequence (P42568 whole entry, looked up): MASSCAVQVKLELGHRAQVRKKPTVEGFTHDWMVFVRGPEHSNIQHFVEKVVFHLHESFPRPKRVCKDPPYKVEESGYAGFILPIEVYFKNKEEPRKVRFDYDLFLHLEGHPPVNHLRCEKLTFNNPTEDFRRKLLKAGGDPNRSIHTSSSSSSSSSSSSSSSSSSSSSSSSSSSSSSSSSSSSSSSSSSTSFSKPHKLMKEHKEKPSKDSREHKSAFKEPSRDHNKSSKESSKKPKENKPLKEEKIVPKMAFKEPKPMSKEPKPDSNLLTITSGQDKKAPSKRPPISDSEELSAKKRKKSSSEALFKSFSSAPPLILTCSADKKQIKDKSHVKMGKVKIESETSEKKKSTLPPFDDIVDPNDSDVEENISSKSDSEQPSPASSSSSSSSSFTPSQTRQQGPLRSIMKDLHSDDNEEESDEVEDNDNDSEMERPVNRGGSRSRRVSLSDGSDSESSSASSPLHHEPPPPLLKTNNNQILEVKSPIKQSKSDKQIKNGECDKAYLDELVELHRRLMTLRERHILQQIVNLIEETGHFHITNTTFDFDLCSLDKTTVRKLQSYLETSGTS
Calb FLC – C. albicans growth inhibition with fluconazole, primary screen, CaCi-2 strain, Alamar Blue fluorescence; growth inhibition, % (no concentration beside the values); C. albicans CaCi-2 (fluconazole-resistant clinical isolate) + fluconazole, 48 h; AID 1979, 2009; 0.57% of 300,000 active;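 active = most replicates above 75%; inconclusive = exactly half above 75%; inactive = most below 75%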;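 also: all wells also contain fluconazole at 8 µg/ml as a sub-toxic cotreatment; 0% = median of DMSO wells and 100% = median of geldanamycin control wells; wells of about 8 µL received 7.5 nL stock; the first replicate is given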
LANA-H2B inh – blockers of LANA interaction with H2A/H2B – biochemical, FP readout, HTS, primary screen; inhibition, % (test concentration not listed); 0.6% of 320,000 active; cell-free LANA-H2A/H2B peptide, fluorescence polarization; in the data active = inhibition mostly above about 10%, no sharp cut-off; inactive = mostly below about 6.7%;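 also: stock transfer was 7.5 nL into about 10 µL; 0% = median of vehicle wells and 100% = median of positive control wells; one replicate is shown; the record names a cut of 25% in any replicate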
RanGTP-Impb inh – inhibitors of RanGTP-importin-beta interaction, primary screen, biochemical, FRET, CFP-Ran, YFP-importin-beta, homogeneous; cell-free CFP-Ran/YFP-importin-beta FRET ratio; inhibition, % (test concentration not listed); 1.1% of 300,000 active; AID 2216, 2009;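 active = most replicates above 15%; inconclusive = exactly half above 15%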;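 also: 0% = DMSO wells and 100% = Ran loaded with GDP instead of GTP; wells of about 40 µL received 100 nL stock; the first replicate is given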
A1 inh – caspase 3/7 activation in MEF A1-2A-BIM cells, primary screen, A1 inhibitor project, cell-based, luminescence, HTS. Caspase-Glo 3/7 luminescence, 3 h; percent of clofoctol response, vehicle zero. caspase activation, % (concentration not given with the values). 0.066% of 330,000 active. AID 2462, 2010;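 active = over half of replicate activation scores above 10%, or exactly half above 10 with the replicate mean above 10; inconclusive = replicate mean below 10 yet half the replicates above 10; inactive = over half of replicates below 10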;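 also: wells of about 30 µL received 50 nL stock; many hits fall short of the cut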
T cruzi inh – inhibitors of intracellular T. cruzi growth, primary screen, luminescence, NIH3T3 host cells. 1.4% of 300,000 active. AID 1885, 2009. T. cruzi beta-gal in NIH3T3, 90 h. inhibition, % (concentration not given with the values);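 active = mean inhibition across valid replicates above about 55%, limit read from the data; inconclusive = mean below that limit but half or more replicates reach it; inactive = mean below it, under half of replicates reach it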;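 also: signal also drops with host cell toxicity which is not excluded here; 0% = plate median of DMSO wells and 100% = zero luminescence signal; higher percent means less beta-gal luminescence so fewer parasites; stock transfer was 50 nL into about 50 µL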
Vif TR-FRET – inhibitors of Vif binding to APOBEC3G peptide, primary screen, biochemical, TR-FRET, GST-Vif 1-94, biotin-A3G peptide, dose response retest (AID 1117319) | Virion infectivity factor (Human immunodeficiency virus type 1 group M subtype B (isolate … | inhibition, %; hits with a dose series show IC50 in µM | 0.57% of 260,000 active | TR-FRET GST-Vif / biotin-A3G peptide binding; higher % means a stronger effect; test concentration not given here; strong numbers were not always called active;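 active = above the screen mean plus three standard deviations and confirmed in dose response; inconclusive = results disagree or hit not tested in dose response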;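 also: Vif residues 1-94 fused to GST binding biotinylated APOBEC3G peptide 110-148; 0% = full assay without inhibitor and 100% = GST in place of GST-Vif; retest series ran down from 100 µM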
Beta apoptosis – inhibitors of cytokine-induced beta cell apoptosis, primary screen, luminescence; INS-1E cytokine-induced death, ATP luminescence, 48 h; percent of positive-control rescue, neutral wells zero; protection from apoptosis, % (concentration not given with the values); 0.8% of 300,000 active;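 active = all replicates at 75% or more, or half of them and the mean; inconclusive = half reach 75% but not the mean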;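 also: 0% = cytokine-treated negative control wells and 100% = positive control rescue; higher means more ATP so stronger rescue from cytokine killing; wells of about 40 µL received 100 nL stock; the first replicate is given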
Active calls of the source: *; u = inconclusive; x = not tested or not shown.

SMILES	MLL AF4-AF9 inh	Calb FLC	LANA-H2B inh	RanGTP-Impb inh	A1 inh	T cruzi inh	Vif TR-FRET	Beta apoptosis
COc1ccc(-c2nc3n(c(=O)c2C#N)CCCS3)cc1	x	-4	9.5	1.2	0.3	-16	-4%	-8
Cc1ccc(S(=O)(=O)N(C(=O)c2ccco2)c2cc3sc(=O)oc3c3ccccc23)cc1	x	14	-6.5	1.9	0.2	-5	x	53
COc1ccc(-c2noc(N3CCC(C(=O)NCc4ccc(F)cc4)CC3)n2)cc1	7.4	0	-0.3	7.3	0.2	-41	x	4
COc1ccc(C(=O)CCN2CCN(c3ccccc3OC)CC2)cc1	14	-7	0.6	u	-0.5	27	-9%	-1
COc1ccccc1[C@@H]1C(c2ccc(F)cc2)=NN(c2ccccc2)[C@H]1C(=O)N1CCOC1=O	1.7	18	-3.4	1.5	-0.9	4	u	4
CCn1nc(C(=O)Nc2nc(-c3ccccn3)cs2)c2ccccc2c1=O	0.9	x	-4.7	x	0.0	x	-4%	32
Cc1nc2c(=O)n(C)c(=O)[nH]c2n1Cc1ccccc1	x	u	-3.5	-0.8	0.4	-4	-3%	-4
CCN(CCNC(=O)c1ccc(C#N)cc1)c1cccc(C)c1	x	-1	3.2	2.6	0.6	-4	x	5
O=C(Nc1cnc2sccn2c1=O)c1ccc(Cl)cc1Cl	x	3	3.1	-3.2	-5.5	-18	4%	-4
CCOC(=O)c1ccc[n+](CC(=O)c2ccc(NC(=O)c3ccccc3)cc2)c1	9.0	-7	-2.7	3.1	0.8	-3	x	-1
O=C(CSc1nnc2n1CCCN2)c1ccc([N+](=O)[O-])cc1	5.1	0	-1.5	1.5	0.3	7	8%	-5
CCCCc1nc2ccccc2c(N)c1CCC (tested in a mixture with another compound)	6.1	-14	-2.2	4.0	-0.4	47	-2%	23
CCN(CC)S(=O)(=O)c1ccc(OC)c(NS(=O)(=O)c2cccc(C(=O)O)c2)c1	-1.6	14	-0.3	u	-0.4	-5	x	-1
C/C(=N\NC(=O)CNc1ccccc1)c1ccccc1	0.5	-4	-1.5	-2.5	0.3	9	x	4
O=C(c1cc(-c2ccc(F)cc2)nc2ccccc12)N1CCN(C2CCS(=O)(=O)C2)CC1 (stereo not drawn)	-1.0	x	1.7	x	-0.6	x	x	10
Cc1c(N)cc(N)cc1C(=O)O	3.7	8	-2.3	-7.6	-0.1	22	u	-2
COc1ccc(-c2csc(NC(C)c3nc4cc(Cl)c(Cl)cc4n3CCOCCO)n2)cc1 (stereo not drawn)	x	-15	-1.0	-1.3	-0.1	32	x	-3
O=C(N/C(=N\O)c1ccccc1)Nc1ccc(Cl)cc1	x	x	0.1	x	0.0	x	-4%	-2
CC1=C/C(=N\OS(=O)(=O)c2ccccc2)C(C)=CC1=O	x	x	-0.1	x	17*	x	20%	112*
CCOC(=O)CSc1nnc(Cc2ccccc2)n1Cc1ccco1	x	-5	-1.6	-5.4	0.5	-2	8%	-8
CCN(CC)S(=O)(=O)c1ccc(NC(=O)CN(c2cccc(C)c2)S(C)(=O)=O)cc1	x	-32	2.0	-2.7	0.5	4	u	-2
COc1ccc2c(c1)c(C(=O)CN1CCC(C(N)=O)CC1)c(C)n2C	x	5	-3.4	-2.3	0.2	-4	-6%	1
Cc1c(/C=N\NC(=O)C2COc3ccccc3O2)c2ccccc2n1C (stereo not drawn)	x	-6	2.0	23*	0.2	2	x	-4
COC(=O)[C@H](Cc1ccccc1)NC(=O)N1CCCCC1C (stereo partly drawn)	x	21	0.3	-1.3	0.1	-17	13%	1
NS(=O)(=O)c1cccc(C(=O)NC2CCSc3ccccc32)c1 (stereo not drawn)	0.6	-1	-1.1	-0.8	0.5	-5	x	-1
Next part:
SMILES	MLL AF4-AF9 inh	Calb FLC	LANA-H2B inh	RanGTP-Impb inh	A1 inh	T cruzi inh	Vif TR-FRET	Beta apoptosis
CCC(=O)Nc1ccc(-c2ccc(N3CCN(C)CC3)nn2)cc1	x	4	4.0	-2.4	0.2	5	-8%	-2
CCCCCc1nnc(NC(=O)NS(=O)(=O)c2ccc(C)cc2)s1	-2.7	-16	-1.9	-2.9	0.2	-9	x	-2
CC(C)(C)C(=O)/C=C1\NC(=O)CS1	-12	13	0.4	-25	0.1	-18	x	-14
COc1ccc(OC)c(CNC(=O)CCS(=O)(=O)c2ccc3c(c2)oc(=O)n3C)c1	0.9	-12	-2.6	0.4	-0.4	6	x	-8
COc1ccccc1N1CCN(C(=O)/C=C/c2ccc(C)cc2)CC1	x	2	5.6	20*	-0.2	8	x	1
O=C(NCCCN1CCCC1)c1ccc2c(c1)N(Cc1ccccc1)CCS2	13	-9	4.6	u	-1.0	26	27%	-2
Cc1ccc(S(=O)(=O)N2CCC(N3CCC(C)CC3)CC2)cc1	-6.6	-8	0.2	0.7	-0.2	4	-3%	x
CCOC(=O)CNC(=O)N1CCCC(CNS(=O)(=O)c2cccs2)C1 (stereo not drawn)	-1.0	-2	1.0	-1.2	0.6	-10	5%	0
CCN1C(=O)/C(=C\c2nc3ccccc3c(=O)n2-c2ccccc2)c2ccccc21	0.0	-1	-0.4	-1.8	0.5	24	0%	x
O=C(NCc1ccc2c(c1)OCO2)C1CCCN(C(=O)c2ccc(Cl)cc2)C1 (stereo not drawn)	x	-2	3.0	1.0	-0.3	-13	7%	-3
Cc1cc(N=Cc2cc(Br)ccc2O)no1	2.5	-1	3.0	4.2	-0.7	-32	0%	-4
O=C(O)Cn1nnn(-c2ccccc2)c1=S	x	1	-1.9	-0.8	1.8	-1	-3%	-2
Cc1ccccc1NC(=O)Cn1nnc(-c2ccc(N3CCOCC3)cc2)n1	x	-12	1.6	-1.8	0.9	-21	-2%	-7
COc1ccc(NC(=O)c2cc(-c3ccccc3Cl)on2)cc1	-5.9	-3	-0.3	2.4	-0.9	1	1%	1
COC(=O)c1ccc(S(=O)(=O)N2CCC(O)CC2)n1C	1.2	-5	0.4	-0.9	-0.6	2	12%	-3
COc1ccccc1CNC(=O)CCNS(=O)(=O)c1cccc2nsnc12	3.3	10	-2.4	0.9	-0.8	-10	2%	6
CCC(CC)NC(=O)CSc1ccc(S(=O)(=O)N2CCOCC2)cn1	-2.7	x	9.7	x	0.5	x	22%	3
Cc1c(NC(=O)CN2CCCc3ccccc32)c(=O)n(-c2ccccc2)n1C	x	u	2.2	4.2	0.6	-1	-2%	-1
COc1ccc(Cc2nc3c4c(ncn3n2)Oc2ccc3ccccc3c2C4c2ccc(OC)c(OC)c2)cc1 (stereo not drawn)	x	19	1.2	-1.3	-0.9	57*	x	-13
COc1ccc(-n2c(SCC(=O)N3CCCCC3)nc(O)cc2=O)cc1	x	-4	5.4	-2.1	0.1	-5	13%	0
COc1cc(-c2nnc(NC(=O)C3=COCCO3)o2)cc(OC)c1OC	-1.0	-8	2.2	-0.7	0.5	-9	-8%	0
CSc1nnc([C@H](C)NC(=O)OC(C)(C)C)o1	x	-9	-0.7	0.4	-0.3	0	1%	-3
CC(C)c1ccc(CCNC(=O)CCNC(=O)c2ccc(Br)cc2)cc1	-1.5	-3	-2.1	7.6	-1.2	2	-5%	x
Cc1cc(C)c(C(=O)CSC2=NC(N)=C(C#N)C3(CCCCC3)C2C(N)=O)cc1C (stereo not drawn)	x	5	-2.9	0.4	-0.7	15	2%	6
CCC(=O)Nc1ccc(NC(=S)NC(=O)c2cc3ccccc3o2)cc1	4.4	-13	0.0	0.1	1.6	10	5%	0
Continued.
SMILES	MLL AF4-AF9 inh	Calb FLC	LANA-H2B inh	RanGTP-Impb inh	A1 inh	T cruzi inh	Vif TR-FRET	Beta apoptosis
O=C(CSc1nc2ccccc2o1)Nc1nncs1	x	5	0.5	-3.3	0.4	-20	23%	3
Cc1c(CCC(=O)NC2CC2)c(=O)oc2c(C)c(O)ccc12	x	-4	-0.7	27*	-0.7	-8	x	3
[N-]=[N+]=N[C@@H](CCN1CC[C@H](NC(=O)OCc2ccccc2)CCC1=O)c1ccccc1	1.5	-2	3.2	u	0.1	12	x	-1
O=S(=O)(NCCSc1ccccc1)c1cccs1	x	-16	0.6	u	-0.3	-11	3%	-2
Cc1ccccc1C(=O)Nc1nc2n(n1)C(c1ccccc1)CC(=O)N2 (stereo not drawn)	x	-8	-5.4	-5.2	0.1	-5	-3%	x
CCN(CC)CCCN(C(=O)Cn1nnc(-c2ccc(OC)c(OC)c2)n1)C(C(=O)NC(C)(C)C)c1ccc(F)cc1 (stereo not drawn)	3.0	30	0.5	2.6	-0.2	-3	17%	0
COc1ccccc1N1CCN(S(=O)(=O)c2ccc(Cl)cc2)CC1	1.4	0	-8.1	-3.7	-0.4	8	-7%	x
CC1Cc2cc(/C(O)=C3\C(=O)C(=O)N(Cc4cccnc4)C3c3ccccc3F)ccc2O1 (stereo not drawn)	x	9	12*	2.0	0.6	-3	x	2
Cc1ccc(NC(=O)c2cc(-c3cccc(O)c3)on2)cc1C	-0.4	-2	3.3	4.4	-0.2	14	-3%	2
COn1c(-c2ccccc2)nc2ncccc21	-1.3	7	0.7	7.4	0.1	-2	2%	-3
O=C(CCCN1C(=O)/C(=C\c2cccs2)SC1=S)Nc1ccc(O)cc1	0.7	20	3.5	2.9	0.0	14	x	-3
FC(F)(F)c1cccnc1-n1cncn1	-2.8	3	13*	-3.4	-0.1	-4	-2%	-7
CCOC(=O)/C=C/[C@H]1CCc2cccc(Cl)c2O1	0.0	x	-5.6	x	-1.3	x	x	-8
O=S(=O)(CCc1ccncc1)c1ccc(Cl)cc1	0.6	2	-0.1	4.8	0.1	8	x	0
COc1cc(/C=N/N=C(N)N)ccc1OCc1ccc(Cl)cc1	27*	-3	0.4	0.6	0.4	87*	70%	98*
COC(=O)Cc1cc(=O)n2[nH]cnc2n1	x	-3	3.0	2.9	-0.1	20	0%	-2
CC1CCN(C(=O)C(Cc2ccccc2)NS(=O)(=O)c2ccc3c(c2)oc(=O)n3C)CC1 (stereo not drawn)	0.1	x	15	x	0.3	x	-1%	x
Cc1nnc(SCc2nc3ccccc3s2)n1N	-1.7	12	2.3	-0.4	-1.1	7	-12%	-2
Cc1cccc(NC(=O)Nc2ccc(Br)cc2)n1	-2.6	-6	2.5	0.2	-0.1	3	-2%	0
O=C(COC(=O)c1cccnc1Cl)NC(=O)NC1CCCCC1	-0.8	x	-1.7	x	-0.5	x	-6%	2
Nc1c(C=C2C=CC(=O)C=C2)c(=O)nc2sc(CC(=O)N3CCCCC3)nn12	-1.6	-7	1.0	4.9	1.8	4	x	-1
O=C(CN1CCC(NC(=O)c2ccco2)CC1)Nc1ccccc1[N+](=O)[O-]	x	7	0.6	3.5	0.8	-7	2%	4
C/[N+]([O-])=C\C1C(=O)CC(C)(C)CC1=O	-2.1	-3	5.9	-2.1	0.5	-15	x	x
Cc1nc(C(F)(F)F)c(C(=O)O)cc1-c1nc(-c2ccccc2)cs1	0.0	9	1.8	u	0.2	-1	-14%	-1

From PubChem BioAssay

No enrichment for hits. About 4.3% of those tested had a hit in this group.
